Compound activity deposited in PubChem by ICCB-Longwood Screening Facility, Harvard Medical School.
AID504770 = E. coli YBA685 growth inhibition, screen for V. cholerae RctB inhibitors. hit rate 0.27% among 130,000. z-score (test concentration not listed). E. coli YBA685 rctB-dependent plasmid, OD600 growth, 3 h; stronger effect = lower value;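 active = z-score under -2 on both plates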;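 note: wells of about 30 µL received 100 nL stock; score is relative to mean and SD of the test wells; the first replicate is given; strong numbers were not always called active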
Ba CapD inh = CapD enzyme inhibition; purified CapD enzyme, fluorescence intensity read-out; stronger effect = lower value; some hits fall short of the stated cut; z-score (concentration not given with the values); hit rate 0.23% among 140,000; AID 492967;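 active = z-score under -4 in either of two replicates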;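 note: stock transfer was 100 nL into about 40 µL; score is relative to mean and spread of the plate; one replicate is shown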
* = called active by the depositor; . = no result given; & = joins results of further samples.

SMILES | AID504770 | Ba CapD inh
CCCCN(CCCC)CC(O)CN(c1ccc(C)cc1)S(=O)(=O)c1ccc([N+](=O)[O-])cc1 (centres undefined) | . | -0.3
COc1cc(O)c(C(=O)Cc2cc3ccccc3o2)cc1C(C)C | -0.65 | .
O=C(c1ccc(S(=O)(=O)NCc2ccco2)cc1)N1CCN(c2ccc(F)cc2)CC1 | 0.85 | .
CNC(=O)c1ccccc1Sc1ccc(Cl)cc1C(=O)O | -0.45 | 0.6
O=C1CC(c2ccccc2)SC(N2CCc3ccccc32)=N1 (centres undefined) | 0.2 | 0.35
CC1NC(=O)C(C#N)=C(SCc2ccccc2)S1 (centres undefined) | -0.35 | 0.22
CN(C)CCn1c(-c2ccccc2)cc(=S)c2c1CCCC2 | -0.9 | .
Cc1cc2c(o1)-c1c(oc3ccccc13)CCC2(C)c1ccccc1 (centres undefined) | 0.2 | -0.32
O=C(COc1ccc(Cl)cc1)OCCOc1ccccc1F | -1.1 | -0.38
CC1(C)CC(=O)C(Sc2nnc(-c3ccc(O)cc3)n2CC2CCCO2)C(=O)C1 (centres undefined) | -0.8 | .

Pulled by structure from the entries so far, 3 records:
SMILES | AID504770 | Ba CapD inh
CC1(C)CC(=O)C(Sc2nnc(-c3ccc(O)cc3)n2CC2CCCO2)C(=O)C1 (centres undefined) | -0.8 | .
COc1cc(O)c(C(=O)Cc2cc3ccccc3o2)cc1C(C)C | -0.65 | .
CNC(=O)c1ccccc1Sc1ccc(Cl)cc1C(=O)O | -0.45 | 0.6

Additional results follow.
SMILES | AID504770 | Ba CapD inh
O=C1NCCCN1Cc1ccc(F)cc1Cl | -0.8 | 0.48
CC(=O)NC12CCC3CC(CC(C3)C1)C2 | -0.25 | .
COc1cc(NC(=O)C(Sc2nc(C)cc(C)c2C#N)c2ccccc2)c(OC)cc1Cl (centres undefined) | 1.4 | -0.04
O=c1[nH]c2ccc(S(=O)(=O)Nc3ccc(O)cc3)cc2[nH]1 | -0.4 | 0.48
CNS(=O)(=O)c1cc(OC)ccc1OC | -0.3 | 0.29
CC(O)Cn1c(=N)n(C)c2ccccc21 (centres undefined) | 0.35 | -0.21
CC1CCN(C(=O)CSc2nc(NCc3ccccc3)c3ccccc3n2)CC1 | . | 0.55
N#Cc1c(Cl)cccc1Oc1ccc(S(=O)(=O)NCCc2c[nH]c3ccccc23)cc1 | . | -0.8
O=c1c2c3c(sc2ncn1CCc1ccccc1)CCCC3 | -0.75 | 0.24
COc1ccc(C2C3=C(CC(C)(C)CC3=O)Nc3c2c(=O)[nH]c(=O)n3Cc2ccccc2)cc1 (centres undefined) | -0.55 | 7.5
COC(=O)C(/C=N/OCc1ccc([N+](=O)[O-])cc1)NC(=O)c1ccccc1 (centres undefined) | . | -0.7
Cc1ccc(N2C(=O)/C(=C/c3ccc([N+](=O)[O-])cc3)C=C2c2ccccc2)c(Br)c1 | . | 0.035
CSc1nc2c(sc(=S)n2-c2ccccc2)c(=O)[nH]1 | . | 0.49
Cc1c(C(=O)N(C)C)sc2nc(SCC(=O)NCc3ccco3)n(CCc3ccccc3)c(=O)c12 | -0.8 | -0.64
NC(=O)c1nn(CC(=O)N2CCCSc3ccccc32)c(=O)c2ccccc12 | -0.85 | .
Oc1c(Cl)cc(Cl)cc1/C=N/NC(=S)NCC1CCCO1 (centres undefined) | . | 0.72
CC(=O)NCCSc1c(C)[nH]c2ccccc12 | -0.15 | -0.66
CCOC(=O)N1CCC(n2c(SCC(=O)NCc3ccco3)nc3ccsc3c2=O)CC1 | -0.9 | -0.65
CCN(CC)CC(=O)Nc1ccccc1-c1nc2ccccc2[nH]c1=O | -0.6 | .
Cc1cc(C#N)c(C)n1CCCn1ccnc1 | -0.95 | .
C=CCSc1nnc(Cn2cnc3ccccc32)n1C | -0.8 | .
CCS(=O)(=O)N1CCc2cc(C(=O)COC(=O)c3ccc(NC(=O)CC#N)cc3)ccc21 | 0.95 | .
CCNC(=O)Oc1noc2ccc(C)cc12 | 0.85 | 0.27
O=C(NC1(C(=O)Nc2ccccc2)CCCCC1)c1ccc(-n2cnnn2)cc1 | -0.6 | -0.41
N#CCn1c(=O)c2c(ncn2Cc2ccccc2)n(Cc2ccccc2)c1=O | -0.35 | .
NC(=O)c1cc2c(ccc3ccccc32)oc1=Nc1ccc(Br)cc1 | . | 0.35
O=C(c1ccc(C(F)(F)F)cc1)N1CCCCC1 | 0 | -0.11
COc1cc(OC)nc(-c2ccc(C(=O)O)cc2)n1 | . | -0.11
N#Cc1ccc(C2N=C(c3ccccc3)NO2)cc1 (centres undefined) | -0.7 | -0.54
Cc1csc2ccc(Cl)cc12 | . | -0.12

Six structures from above, ordered by molecular weight, ascending:
SMILES | AID504770 | Ba CapD inh
CCNC(=O)Oc1noc2ccc(C)cc12 | 0.85 | 0.27
N#Cc1ccc(C2N=C(c3ccccc3)NO2)cc1 (centres undefined) | -0.7 | -0.54
COc1cc(OC)nc(-c2ccc(C(=O)O)cc2)n1 | . | -0.11
N#CCn1c(=O)c2c(ncn2Cc2ccccc2)n(Cc2ccccc2)c1=O | -0.35 | .
NC(=O)c1cc2c(ccc3ccccc32)oc1=Nc1ccc(Br)cc1 | . | 0.35
CCS(=O)(=O)N1CCc2cc(C(=O)COC(=O)c3ccc(NC(=O)CC#N)cc3)ccc21 | 0.95 | .

Continued:
SMILES | AID504770 | Ba CapD inh
CN(C)S(=O)(=O)c1ccc(NC(=O)Nc2ccccc2)cc1 | -0.05 | 0.14
C[n+]1cn(CC(=O)Nc2ccccc2)c2ccccc21 | 0.3 | 0.88
O=C(COc1ncnc2sc(-c3ccccc3)cc12)N1CCNC1=O | -0.3 | .
Cc1nc2ccc(Cl)cc2nc(C)/c1=N\O | -0.55 | .
O=C1NC2(CCOc3ccccc32)C(=O)N1CC1NS(=O)(=O)N=C2CCCCCN21 (centres undefined) | -0.95 | .
O=S(=O)(c1ccc2c(c1)CCO2)N1CCC2(CC1)OCCO2 | 0.65 | 1.4
COc1ncnc2oc(C)c(C(=O)Nc3cccc(Cl)c3)c12 | 0.25 | -0.21
Cc1cc2c(NC3CCCC3)ncnc2s1 | -0.15 | .
CC(=O)N1CCc2cc(S(=O)(=O)N3CCc4ccccc4C3CN3C(=O)c4ccccc4C3=O)ccc21 (centres undefined) | 1.4 | -0.18
NS(=O)(=O)c1ccc(CCNC(=O)c2ccc(-n3nc(-c4ccccc4)cc3-c3ccccc3)cc2)cc1 | . | 1.9
O=C(CCS(=O)(=O)c1cc(Br)cc2c1N(C(=O)C1CC1)CC2)N1CCCCC1 | -2 | -0.11
C=CCc1cccc(C)c1OCCCN1CCC(C)CC1 | -0.85 | -0.04
N#CCOc1ccc(Cl)cc1 | . | -0.32
CC(O)CN1CCCCC1c1cccnc1 (centres undefined) | -0.7 | 4
COC(=O)C1=CN(C(C)C)C=C(C(=O)OC)C1c1ccc(OC)cc1 | 0.3 | 58
COc1ccc(-c2nc(-c3ccccn3)nc(N3CCN(C)CC3)c2C#N)cc1 | . | -0.28
CC12CN3CCN(CC(C3)/C1=N\O)C2 | 0.35 | 0.47
COc1ccc(C(=O)Nc2ccc3oc(-c4ccccc4)nc3c2)cc1Br | . | 8.7
CC(=O)Nc1ccc(S(=O)(=O)CCC(=O)O)cc1 | 0.6 | 0.67
COc1ccc(NC(=O)COc2ccc(Cl)c(C)c2)cn1 | -0.45 | .
Clc1ccc(SCc2csc(-c3ccsc3)n2)cc1 | -0.7 | -0.08
O=C(O)C1CCC(=O)N1Cc1cccs1 (centres undefined) | 0.15 | 0.53
O=C(NC(N1CCCC1=O)(C(F)(F)F)C(F)(F)F)c1cccnc1 | -0.6 | 0.82
Cc1cc(C)nc(SCC(=O)N2c3ccccc3C(C)CC2(C)C)n1 (centres undefined) | -1.8 | -0.19
NC(=O)c1cc(Cl)ccc1I | 0.25 | -0.85
O=C(O)c1ccc(C2SCC(=O)N2NS(=O)(=O)c2ccc(F)cc2)cc1 (centres undefined) | -0.65 | 0.14
COC(=O)c1c(C)[nH]c(C2=NNC(=NC3CCCCC3)SC2C)c1C (centres undefined) | -0.4 | .
Cc1ccc(-n2c(C)cc(C(=O)OCc3ccc(C#N)cc3)c2C)cc1 | -0.25 | .
O=C(COc1ccc(F)cc1F)n1cnc2ccccc21 | -0.3 | 0.22
CCn1c2ccccc2c2cc(CN3CCN(C(=O)c4csc(-c5cnccn5)n4)CC3)ccc21 | . | 1.8
CN(CC(O)COCc1cccs1)C1CCCCC1 (centres undefined) | 1.1 | -0.11
Cc1ccccc1-n1c(N)cc(=O)[nH]c1=O | . | 0.1
CCOc1ccc2nc(SC3CC(=O)N(c4ccc(OC)cc4OC)C3=O)sc2c1 (centres undefined) | . | -0.22
O=C(CSc1nnc2n1CCCCC2)NC(=O)c1cccs1 | -0.55 | .
COC(=O)COc1ccc(C(C)=O)cc1 | . | -0.43
COc1cc2c(cc1OC)CN(c1c([N+](=O)[O-])cc(C(F)(F)F)cc1[N+](=O)[O-])CC2 | . | 0.07
CC(=O)Nc1ccc(C(=O)NNC(=O)c2ccco2)cc1 | . | 0.055
CCN(CC)C(=O)c1cccc(C)c1 | . | -0.77
CSc1nnc(COc2ccccc2)n1N | 2.2 | -0.26
Cc1ccc(C2=NN(C(=O)CCC(=O)O)C(Cc3cc4cccc(C)c4[nH]c3=O)C2)cc1 (centres undefined) | . | 0.41
CCOC(=O)c1c(C=O)oc2c(C)cc(OC(=O)c3ccc(Cl)cc3)c(Br)c12 | . | 0.14
COc1ccc(/C=C(\C#N)S(=O)(=O)c2ccccc2Cl)s1 | 2.5 | -0.39
O=C(Cc1csc(NC(=O)c2ccco2)n1)NCc1ccc(Cl)cc1 | 0.4 | .
N#Cc1c(N)c(C(=O)c2ccccc2)n2c1CCC2 | 1.8 | 0.27
CCCCNC(=O)c1ccc2cn[nH]c2c1 | 0.25 | -0.81
Cc1ccc(N(CC(O)CN(Cc2ccccc2)Cc2ccccc2)S(=O)(=O)c2ccccc2)cc1 (centres undefined) | . | -0.085
CCn1cc(C(=O)N2CCCSC2=Nc2ccccc2)c(=O)c2ccc(C)nc21 | 0.5 | .
O=S(=O)(c1ccc(Br)cc1)N1CCc2c([nH]c3ccccc23)C1 | . | 0.52
CCOC(=O)CSc1nnc(-c2ccc(Br)cc2)n1-c1ccccc1 | . | 0.57
COc1ccc(-c2noc(CN3CCCC(C(=O)O)C3)n2)cc1OC (centres undefined) | -0.9 | -0.08
Next results:
SMILES | AID504770 | Ba CapD inh
COc1ccc(OC)c(S(=O)(=O)c2ccc(C)cc2)c1 | -0.75 | .
CC(=O)Nc1ccc(S(=O)(=O)N2CCCCC2C)cc1 (centres undefined) | -0.05 | 0.01
CCc1nnc(NC(=O)c2ccc(S(=O)(=O)N3CCCCC3C)cc2)s1 (centres undefined) | -0.15 | .
COc1ccc(C(=O)c2oc3cc(OC)ccc3c2C)cc1 | -0.5 | .
Cc1nc(SCC(=O)N2CCSc3ccccc32)c(C#N)c(C)c1C | 2.1 | .
Cc1ccc2nc(NC(=O)c3ccco3)sc2c1 | 2.5&0.2 | 13
CO/C([O-])=N/c1c[n+](-c2ccc(Cl)cc2)no1 | 0.15 | -1.4
CC1CCN2C(c3ccc(Cl)cc3)=CSC2=N1 (centres undefined) | -0.65 | .
FC(F)(F)N(c1ccccc1)c1ccccc1 | -0.5 | 0.33
Cc1ccc(NC(=O)c2ccsc2)cc1NS(C)(=O)=O | -0.25 | 0.61
O=C(Nc1cccc(-c2nn[nH]n2)c1)c1cccs1 | -0.35 | 0.18
COc1ccc(-c2nn(C)c3sc(C(=O)NCCCN4CCOCC4)cc23)cc1OC | -0.75 | -0.23
CCOc1ccc2c(c1)c(=O)c1cccnc1n2Cc1ccccc1C | -0.95 | -0.14
Cc1c(C(=O)O)oc2ccc3c(c12)C(=O)CC1(CCCC1)O3 | 0.05 | 98
COC(=O)c1ccc(C(=O)Nc2ccc3nc(CN4CCCCC4)[nH]c3c2)cc1 | -0.45 | 2.1
CCOC(=O)c1nn(-c2ccccc2)c(=O)cc1OCC(=O)Nc1ccc2c(c1)OCCO2 | 0.35 | .
Cc1ccc(-n2nnnc2-c2nc3ccccc3s2)cc1 | -0.2 | 1.9
CCCCOC(=O)CSC1=C(C#N)C(c2cccnc2)C(C(=O)OCC)=C(c2ccccc2)N1 (centres undefined) | . | 0.8
CCc1ccccc1NC(=O)CNCc1ccccc1 | 2 | .
CCC(C)NC(=O)Cn1cc2c(n1)CCC(C)C2 (centres undefined) | -0.35 | -0.69
Cc1ccc2nc(C3CCCCC3)[nH]c2c1 | -0.55 | .
COc1cc(-c2cc(C#N)on2)cc(OC)c1OC | 1.6 | -0.21
COc1ccc(-c2n[nH]c3c2cnc2ccccc23)cc1 | 0.1 | 5.8
CCSc1cc(C(F)(F)F)nc2cc(C(C)(C)C)nn12 | 0.4 | 0.51
COc1ccc(S(=O)(=O)N2CCN(c3cc(C(F)(F)F)nc4ccc(C)cc34)CC2)cc1OC | . | -0.21
CCC(C)Nc1nc(OC)nc(Oc2ccc(=O)[nH]n2)n1 (centres undefined) | -0.65 | -0.24
O=C(O)C(O)c1ccccc1Cl (centres undefined) | 0.2 | -0.93
CC1Cc2ccccc2N1C(=O)CSc1ccc2c(c1)OCCO2 (centres undefined) | -0.05 | .
CN(C)/C=N/c1ncccc1OCc1ccc(Cl)c(Cl)c1 | . | -0.03
CCCCSc1nnc2sc3ccccc3n12 | 0.45 | 0.18
CC1CCc2cc(F)ccc2N1C(=O)Nc1ccccc1 (centres undefined) | 0.05 | .
COc1cc(OC)nc(CSCCNC(=O)C(Sc2ccccn2)c2ccccc2)n1 (centres undefined) | . | 0.075
O=C(O)CCCN1C(=O)c2cccnc2Sc2ccccc21 | 0.2 | 0.015

Part of the list above, in markdown:
| SMILES | AID504770 | Ba CapD inh |
| --- | --- | --- |
| COc1cc(OC)nc(-c2ccc(C(=O)O)cc2)n1 | . | -0.11 |
| N#Cc1ccc(C2N=C(c3ccccc3)NO2)cc1 (centres undefined) | -0.7 | -0.54 |
| Cc1csc2ccc(Cl)cc12 | . | -0.12 |
| CN(C)S(=O)(=O)c1ccc(NC(=O)Nc2ccccc2)cc1 | -0.05 | 0.14 |
